Screens deposited in PubChem by several laboratories.
Mtb bLac sens: beta-lactam sensitization of Mtb H37Rv | inhibition, % at 25 µM | AID 434955 | actives 0.27% (n = 330,000) | M. tuberculosis H37Rv growth with meropenem, percent inhibition; hits of this screen are not shown here;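 active means about 74% or more and at least 40 points above the plate without the antibiotic, then above 30% in a dose series; inconclusive means first-round hits that could not be retested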;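 further: growth measured after seven days incubation then overnight dye step; 0% = bacteria only wells and 100% = bacteria with antibiotic; twin plates without the antibiotic show which effects depend on it; some results filed as inactive read as strong as hits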
YopH inh: YopH (Yersinia) phosphatase inhibition; fluorescence Ex485/Em525; inhibition, %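 (about 10 µM by stock and volumes)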; actives 0.16% (n = 140,000); AID 898;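 active means inhibition of 50% or more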;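 further: controls were vehicle for no effect and minimum signal wells for full effect; inactives centre near -20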
Arbovirus anti: arbovirus infection inhibition. arbovirus infection cell-based antiviral screen. inhibition, % at 10 µM. actives 0.37% (n = 200,000). AID 1251;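 active means inhibition from about 30%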;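 further: bluetongue infection of BSR cells; cell survival read as ATP light after 72 h; 0% = infected wells without compound and 100% = uninfected wells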
Mtb growth: M. tuberculosis H37Rv growth inhibitors, H37Rv strain (AID 1626) | M. tuberculosis H37Rv growth inhibition; higher % means a stronger effect | one-dose inhibition, % at 10 µM; IC50 in µM for titrated hits | actives 0.95% (n = 220,000);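 active means confirmed in a dose series; inconclusive means inhibition above 80% but not taken into the dose series; inactive means below 80% or under 30% at every dose of the series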;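 further: bacteria incubated seven days before Alamar blue readout; 0% = bacteria only wells and 100% = bacteria with antibiotic wells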
RecA intein inh: inhibitors of M. tuberculosis RecA intein splicing; P9WHJ3; inhibition, %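 (about 9 µM by stock and volumes)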; AID 2221; actives 0.75% (n = 290,000); cell-free RecA intein splicing, fluorescence; in the data active means inhibition above about 30%; inconclusive means no clear call, values can overlap the other calls;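 further: 0% = vehicle wells and 100% = reference inhibitor control wells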
Target sequence (P9WHJ3 whole entry, looked up): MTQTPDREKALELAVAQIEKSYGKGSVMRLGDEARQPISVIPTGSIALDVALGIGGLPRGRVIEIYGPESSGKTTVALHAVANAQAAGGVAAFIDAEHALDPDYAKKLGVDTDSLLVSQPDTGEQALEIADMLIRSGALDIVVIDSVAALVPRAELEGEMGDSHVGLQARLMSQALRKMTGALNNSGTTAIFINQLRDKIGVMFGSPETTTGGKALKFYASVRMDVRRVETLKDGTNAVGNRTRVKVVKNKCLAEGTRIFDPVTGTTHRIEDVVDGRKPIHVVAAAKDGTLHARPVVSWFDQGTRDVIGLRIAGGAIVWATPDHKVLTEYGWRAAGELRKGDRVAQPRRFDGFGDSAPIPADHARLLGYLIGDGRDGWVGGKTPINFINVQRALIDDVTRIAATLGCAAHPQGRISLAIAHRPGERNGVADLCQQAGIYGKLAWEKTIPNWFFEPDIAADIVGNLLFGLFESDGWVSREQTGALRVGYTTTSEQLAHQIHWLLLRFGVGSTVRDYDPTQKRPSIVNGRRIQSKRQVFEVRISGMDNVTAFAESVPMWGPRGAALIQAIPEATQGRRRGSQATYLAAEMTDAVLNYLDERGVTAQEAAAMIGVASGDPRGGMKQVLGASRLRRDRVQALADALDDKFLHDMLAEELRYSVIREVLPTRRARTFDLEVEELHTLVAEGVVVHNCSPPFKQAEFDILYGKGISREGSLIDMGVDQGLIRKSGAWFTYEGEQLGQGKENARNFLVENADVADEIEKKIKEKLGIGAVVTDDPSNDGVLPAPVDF
Arbovirus anti repeat: further read-out of Arbovirus anti, marked with its call; inhibition, %; measured here: 10K subset replicate screen; many hits read low in the repeat;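 first of two repeat runs on a subset; 0% = infected and 100% = uninfected wells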
Active calls of the source: *.

What do the screens show for `Cc1cc(=O)n2c3ccccc3n(C)c2n1`?
Mtb bLac sens: -2; RecA intein inh: -1.2

How did COc1cc(C(=O)Nc2nc3ccc(C)cc3s2)ccc1OCc1c(C)noc1C do in these assays?
Mtb bLac sens: 1; YopH inh: -39; Arbovirus anti: -4; Mtb growth: 10%; RecA intein inh: 0.3

How did Cc1ccccc1NC(NC(=O)c1cccs1)C(Cl)(Cl)Cl (stereo not given) do in these assays?
Mtb bLac sens: -3; YopH inh: -15; Arbovirus anti: -16; Mtb growth: -3%; RecA intein inh: 2.2

How did O=C(COc1ccc2c(c1)CCC2)Nc1ccccn1 do in these assays?
Mtb bLac sens: 33; RecA intein inh: 4.2

What do the screens show for `COc1ccc(/C(C)=N/NC(=O)CNC(=O)c2cccnc2)cc1`?
Mtb bLac sens: 3; RecA intein inh: 0.3

Results for CCNC(=O)/C(=C/c1ccco1)NC(=O)/C=C/c1ccccc1 ?
Mtb bLac sens: 1; YopH inh: -3; Arbovirus anti: 2; Mtb growth: -2%; RecA intein inh: 1.5

Results for CC(CCc1ccccc1)NC(=O)C1CCCN(C(=O)c2cc3sccc3n2C)C1 (stereo not given) ?
Mtb bLac sens: 0; YopH inh: -20; Arbovirus anti: -8; Mtb growth: 0%; RecA intein inh: 2.9

How did CCOc1ccc(N2C(=O)CC(NCCc3ccc(S(N)(=O)=O)cc3)C2=O)cc1 (stereo not given) do in these assays?
Mtb bLac sens: -6; YopH inh: -24; Arbovirus anti: 2; Mtb growth: -3%; RecA intein inh: -2.2

How did COC(=O)c1ccc(NC(=O)CSc2nnc(C3CC3)n2C)cc1 do in these assays?
Mtb bLac sens: -1; RecA intein inh: 4.3

Results for CCOC(=O)Nc1sc(NS(=O)(=O)c2ccc(C)cc2)nc1C ?
Mtb bLac sens: 9; YopH inh: -1; Arbovirus anti: 16; Mtb growth: -10%; RecA intein inh: 6.2

What do the screens show for `C[C@H](CCC(=O)NCC(=O)O)[C@H]1CC[C@H]2C3[C@H](O)C[C@@H]4C[C@H](O)CC[C@]4(C)[C@H]3C[C@H](O)[C@]12C` (stereo not given in full)?
Mtb bLac sens: 4; RecA intein inh: 1.9

How did CC(C)(C)c1nnc(NC(=O)c2cccnc2Cl)s1 do in these assays?
Mtb bLac sens: 4; Arbovirus anti: 4; Mtb growth: 2%; RecA intein inh: -1.2

What do the screens show for `CC(Oc1ccccc1)C(=O)N1CCN=C1SCc1ccccc1F` (stereo not given)?
Mtb bLac sens: 0; Mtb growth: 9%; RecA intein inh: 8.6

How did CN(C)C(=O)c1ccc(NC(=O)CN2C(=O)NC3(CCCc4ccccc43)C2=O)cc1 (stereo not given) do in these assays?
Mtb bLac sens: -2; RecA intein inh: -5.2

Results for COc1ccc(CCN2CC(C(=O)NCCc3ccccn3)CCC2=O)cc1 (stereo not given) ?
Mtb bLac sens: inconclusive; RecA intein inh: 1.6

Results for CCOC(=O)[C@@H]1[C@H]2COc3cc(OC)ccc3[C@@H]2N2C(=O)N(c3ccc(C(F)(F)F)cc3)C(=O)[C@@]12C ?
Mtb bLac sens: -4; RecA intein inh: 0.0

How did COc1ccc(OC)c(C(=O)N/N=C/c2ccccn2)c1 do in these assays?
Mtb bLac sens: 99; RecA intein inh: -3.7

Results for C#CCOc1c(Cl)cc(/C=N/NC(N)=S)cc1OCC ?
YopH inh: -51; Arbovirus anti: -10; Mtb growth: 41%; RecA intein inh: -0.1

Results for COCc1cc(C)n(CC(=O)Nc2c(C)cccc2C)c(=O)c1C#N ?
Mtb bLac sens: -2; Arbovirus anti: 1; Mtb growth: 1%; RecA intein inh: 5.4

What do the screens show for `Cc1ccnc(SCC(=O)Nc2oc(-c3ccccc3)c(-c3ccccc3)c2C#N)n1`?
Mtb bLac sens: 9; YopH inh: 18; Arbovirus anti: -4; Mtb growth: 12%; RecA intein inh: -17

Results for COc1ccccc1OCCNC(=O)CN(c1cccc(C)c1)S(=O)(=O)c1ccccc1 ?
Mtb bLac sens: -2; RecA intein inh: 4.0

Results for O=C(O)c1cccn1Cc1ccccc1F ?
Mtb bLac sens: 0; YopH inh: -35; Arbovirus anti: -2; Mtb growth: 4%; RecA intein inh: -2.6

What do the screens show for `CCc1nnc(NC(=O)C2CCN(C(=O)c3ccco3)CC2)s1`?
Mtb bLac sens: -6; RecA intein inh: 0.0

What do the screens show for `Cc1ccc(CCNC(=O)c2cccc(NC3=NC4CS(=O)(=O)CC4S3)c2)cc1` (stereo not given)?
Mtb bLac sens: -4; RecA intein inh: -0.9

How did CCc1cccc(N(C)C(N)=Nc2cccc3ccccc23)c1 do in these assays?
Mtb bLac sens: -2; Mtb growth: -5%; RecA intein inh: -3.9

What do the screens show for `CCCS(=O)(=O)N1CCN(C(=O)c2cc(OC)cc(OC)c2)CC1`?
Mtb bLac sens: 3; YopH inh: -13; Arbovirus anti: 11; Mtb growth: 1%; RecA intein inh: -3.4

Results for COc1ccc(Cc2nnc(SCC(=O)NC3CCCCC3)n2C)cc1 ?
Mtb bLac sens: 1; YopH inh: -39; Arbovirus anti: 15; Mtb growth: -6%; RecA intein inh: -2.0

Results for COc1ccc(Cl)cc1NC(=O)C(=O)N/N=C/c1cc(C)n(-c2ccc(C)cc2)c1C ?
Mtb bLac sens: -3; YopH inh: 10; Arbovirus anti: 28; Mtb growth: 5%; RecA intein inh: -1.1

Results for O=C(C1=C[C@@H](c2ccccc2)C[C@@H](OCc2ccc(CO)cc2)O1)N1CCN(Cc2ccc3c(c2)OCO3)CC1 ?
Mtb bLac sens: 86; Arbovirus anti: -14; Mtb growth: -3%; RecA intein inh: 7.2

Results for CC(=O)c1ccc(-n2nnnc2SCC(=O)Nc2sc(C)c(C)c2C#N)cc1 ?
Mtb bLac sens: 2; YopH inh: 18; Arbovirus anti: -14; Mtb growth: -2%; RecA intein inh: 1.8

An excerpt from above in order of molar mass, lowest first:
What do the screens show for `CCc1nnc(NC(=O)C2CCN(C(=O)c3ccco3)CC2)s1`?
Mtb bLac sens: -6; RecA intein inh: 0.0

What do the screens show for `CCCS(=O)(=O)N1CCN(C(=O)c2cc(OC)cc(OC)c2)CC1`?
Mtb bLac sens: 3; YopH inh: -13; Arbovirus anti: 11; Mtb growth: 1%; RecA intein inh: -3.4

Results for COc1ccc(Cc2nnc(SCC(=O)NC3CCCCC3)n2C)cc1 ?
Mtb bLac sens: 1; YopH inh: -39; Arbovirus anti: 15; Mtb growth: -6%; RecA intein inh: -2.0

Results for CC(=O)c1ccc(-n2nnnc2SCC(=O)Nc2sc(C)c(C)c2C#N)cc1 ?
Mtb bLac sens: 2; YopH inh: 18; Arbovirus anti: -14; Mtb growth: -2%; RecA intein inh: 1.8

What do the screens show for `Cc1ccnc(SCC(=O)Nc2oc(-c3ccccc3)c(-c3ccccc3)c2C#N)n1`?
Mtb bLac sens: 9; YopH inh: 18; Arbovirus anti: -4; Mtb growth: 12%; RecA intein inh: -17

Results for COc1ccc(Cl)cc1NC(=O)C(=O)N/N=C/c1cc(C)n(-c2ccc(C)cc2)c1C ?
Mtb bLac sens: -3; YopH inh: 10; Arbovirus anti: 28; Mtb growth: 5%; RecA intein inh: -1.1

Results for COc1ccccc1OCCNC(=O)CN(c1cccc(C)c1)S(=O)(=O)c1ccccc1 ?
Mtb bLac sens: -2; RecA intein inh: 4.0

Results for O=C(C1=C[C@@H](c2ccccc2)C[C@@H](OCc2ccc(CO)cc2)O1)N1CCN(Cc2ccc3c(c2)OCO3)CC1 ?
Mtb bLac sens: 86; Arbovirus anti: -14; Mtb growth: -3%; RecA intein inh: 7.2

Next results follow:
What do the screens show for `COc1cccc(C=Nc2ccccc2C(=O)Nc2ccccc2)c1O`?
Mtb bLac sens: -5; YopH inh: -41; Arbovirus anti: -12; Mtb growth: 0%; RecA intein inh: 1.2

How did Cc1cc(Cl)ccc1OCC(=O)N/N=C/c1ccncc1 do in these assays?
Mtb bLac sens: 2; RecA intein inh: 2.7

How did CO/N=C(\N)c1nonc1N do in these assays?
Mtb bLac sens: -4; Mtb growth: 3%; RecA intein inh: -0.4

What do the screens show for `Cc1ccc2nc3c(cc(C(=O)NC4CCS(=O)(=O)C4)n3Cc3ccccc3)c(=O)n2c1` (stereo not given)?
Mtb bLac sens: 11; RecA intein inh: -114

How did CCOC(=O)N1CCN(C(=O)c2cc3c(s2)-c2c(C)cccc2OC3)CC1 do in these assays?
Mtb bLac sens: -2; RecA intein inh: -18

What do the screens show for `CCOc1ccc(CCNC(=O)C2CSC3(C)CCC(=O)N23)cc1OCC` (stereo not given)?
Mtb bLac sens: 0; RecA intein inh: -1.0

What do the screens show for `COc1cc(COc2ccc3c(C)c(CC(=O)O)c(=O)oc3c2C)cc(OC)c1OC`?
Mtb bLac sens: 4; RecA intein inh: -2.3

How did COc1cccc(-n2c(SCC(=O)c3c[nH]c4ccccc34)nc3ccccc3c2=O)c1 do in these assays?
Mtb bLac sens: 1; YopH inh: -23; Arbovirus anti: 5; Mtb growth: 5%; RecA intein inh: -4.2

What do the screens show for `O=C(Cc1ccccc1)N/N=C/c1ccc2c(c1)OCO2`?
Mtb bLac sens: 1; Arbovirus anti: 19; Mtb growth: -2%; RecA intein inh: -4.2

Results for CC(C)OCCCNC(=O)c1ccc2c(c1)S(=O)(=O)c1ccccc1C2=O ?
Mtb bLac sens: -5; RecA intein inh: -0.6

How did CCc1nc(-n2[nH]c(=O)c3ccccc3c2=O)c2c3c(sc2n1)CCCC3 do in these assays?
Mtb bLac sens: 6; YopH inh: 3; Mtb growth: -3%; RecA intein inh: -9.9

What do the screens show for `Cc1cccc(N=C2NC(=O)/C(=C3/C(=O)N(C)c4ccccc43)S2)c1C`?
Mtb bLac sens: 54; YopH inh: -12; Arbovirus anti: 43*; Mtb growth: 53%; RecA intein inh: 1.7; Arbovirus anti repeat: -10*

How did Cn1c(CNS(=O)(=O)c2ccc(Cl)cc2)cc(=O)n(C)c1=O do in these assays?
Mtb bLac sens: 7; RecA intein inh: -2.8

How did COc1ccc(N2CCCn3c2nc2c3c(=O)n(Cc3ccccc3F)c(=O)n2C)c(OC)c1 do in these assays?
Mtb bLac sens: 4; YopH inh: -4; Arbovirus anti: -24; Mtb growth: -14%; RecA intein inh: 4.4

Results for COc1ccc(NC(=O)N2CCCC(C(=O)NCCc3ccccc3)C2)cc1 (stereo not given) ?
Mtb bLac sens: -6; RecA intein inh: 1.5

How did CC(=O)NC1CC2CCCC(C1)N2CC(=O)NCc1ccc(F)cc1 (stereo not given) do in these assays?
Mtb bLac sens: 4; YopH inh: -2; Arbovirus anti: 12; Mtb growth: -13%; RecA intein inh: -4.9

What do the screens show for `O=C(NNc1c(Cl)cccc1Cl)c1c(F)cccc1Cl`?
Mtb bLac sens: 0; Mtb growth: -11%; RecA intein inh: 0.3

How did CN(Cc1nc(-c2cnccn2)no1)C1CC(C)(C)NC(C)(C)C1 do in these assays?
Mtb bLac sens: -5; Arbovirus anti: -1; Mtb growth: -7%; RecA intein inh: -1.9

Results for COc1ccc(CN2CN=C(Nc3nc4ccccc4s3)NC2)cc1 ?
Mtb bLac sens: -12; YopH inh: -13; Arbovirus anti: 6; Mtb growth: -1%; RecA intein inh: -5.4

Results for O=C(Nc1ccccc1)OCc1cc(-c2ccccc2Cl)on1 ?
Mtb bLac sens: -7; YopH inh: -40; Arbovirus anti: -2; RecA intein inh: 9.1

What do the screens show for `COc1ccc(/C=C2\SC(=S)N(Cc3cccnc3)C2=O)cc1C`?
Mtb bLac sens: 59; YopH inh: -26; Arbovirus anti: -15; Mtb growth: 5%; RecA intein inh: 8.0

What do the screens show for `Cc1ccc(C)c(OCC(=O)Nc2nc3ccc([N+](=O)[O-])cc3s2)c1C`?
Mtb bLac sens: -3; YopH inh: -32; Arbovirus anti: 2; Mtb growth: -2%; RecA intein inh: -0.4

Results for COc1ccc(NC(=O)CN(C)C(=O)c2cccc(S(=O)(=O)N3CCN(Cc4ccccc4)CC3)c2)cc1 ?
Mtb bLac sens: -9; RecA intein inh: 1.6

How did O=C1OC(NC(=O)c2ccccc2)C(N2CCOCC2)=C1Cl (stereo not given) do in these assays?
Mtb bLac sens: -12; YopH inh: -37; Arbovirus anti: 5; Mtb growth: -5%; RecA intein inh: 6.6

Results for CC(C)(C)c1ccc(C(=O)OCCNC(=O)c2c(Cl)nc3ccccn23)cc1 ?
Mtb bLac sens: 8; YopH inh: 12; Arbovirus anti: -8; Mtb growth: -11%; RecA intein inh: -1.5

Results for CC(O)CNCCCCOc1ccc(OCc2ccccc2)cc1 (stereo not given) ?
Mtb bLac sens: -12; Arbovirus anti: -15; Mtb growth: 8%; RecA intein inh: -3.8

Results for COc1cc(C)nc(N(C)S(=O)(=O)c2ccccc2Cl)n1 ?
Mtb bLac sens: -12; YopH inh: -17; Arbovirus anti: 5; Mtb growth: 1%; RecA intein inh: -4.2

These rows are one share of the data. The share of hits here may be higher or lower than overall.
